AF4-AF9 inh = inhibitors of AF4 peptide binding to AF9, primary screen, biochemical, AlphaScreen, biotin-AF4 peptide, FLAG-AF9, single point; Protein AF-9 (Homo sapiens), P42568; inhibition, % at 10 µM; actives 0.47% (n = 350,000);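 active means every replicate reaching a set inhibition limit, whatever the replicate mean, cut at about 25% in these data; inconclusive means mean inhibition reaches that limit but some replicates miss it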;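 further: 0% = plate neutral control median and 100% = total signal loss; the record names both 10 and 1 µM as test concentration; the first replicate is given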
Target sequence (P42568 whole entry, looked up): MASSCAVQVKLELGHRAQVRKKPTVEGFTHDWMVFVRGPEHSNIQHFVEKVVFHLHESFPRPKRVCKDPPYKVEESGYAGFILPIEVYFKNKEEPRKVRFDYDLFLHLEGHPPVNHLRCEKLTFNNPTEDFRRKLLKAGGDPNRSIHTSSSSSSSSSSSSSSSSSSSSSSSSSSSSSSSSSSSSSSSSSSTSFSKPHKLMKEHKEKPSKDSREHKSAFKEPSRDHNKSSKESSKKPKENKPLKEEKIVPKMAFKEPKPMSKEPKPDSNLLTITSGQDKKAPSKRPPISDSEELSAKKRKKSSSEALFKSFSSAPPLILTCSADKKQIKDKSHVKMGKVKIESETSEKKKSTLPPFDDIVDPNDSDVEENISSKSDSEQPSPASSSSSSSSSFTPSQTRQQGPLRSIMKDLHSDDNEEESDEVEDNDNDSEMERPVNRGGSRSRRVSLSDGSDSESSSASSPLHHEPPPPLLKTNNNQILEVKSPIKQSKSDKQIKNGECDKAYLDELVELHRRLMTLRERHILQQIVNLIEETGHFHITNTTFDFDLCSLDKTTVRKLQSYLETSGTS
Vif A3G = inhibitors of Vif binding to APOBEC3G peptide, primary screen, biochemical, TR-FRET, GST-Vif 1-94, biotin-A3G peptide, dose response retest (AID 1117319) | Virion infectivity factor (Human immunodeficiency virus type 1 group M subtype B (isolate … | TR-FRET GST-Vif / biotin-A3G peptide binding; higher % means a stronger effect; test concentration not given here; strong numbers were not always called active | inhibition, %; hits with a dose series show IC50 in µM | actives 0.57% (n = 260,000);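 active means above the screen mean plus three standard deviations and confirmed in dose response; inconclusive means results disagree or hit not tested in dose response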;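 further: Vif residues 1-94 fused to GST binding biotinylated APOBEC3G peptide 110-148; 0% = full assay without inhibitor and 100% = GST in place of GST-Vif; retest series ran down from 100 µM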
A1 inh = caspase 3/7 activation in MEF A1-2A-BIM cells, primary screen, A1 inhibitor project, cell-based, luminescence, HTS; actives 0.066% (n = 330,000); Caspase-Glo 3/7 luminescence, 3 h; percent of clofoctol response, vehicle zero; caspase activation, % (test concentration not listed); AID 2462, 2010;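 active means over half of replicate activation scores above 10%, or exactly half above 10 with the replicate mean above 10; inconclusive means replicate mean below 10 yet half the replicates above 10; inactive means over half of replicates below 10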;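 further: wells of about 30 µL received 50 nL stock; many hits fall short of the cut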
RanGTP-Imp inh = inhibitors of RanGTP-importin-beta interaction, primary screen, biochemical, FRET, CFP-Ran, YFP-importin-beta, homogeneous | Ran GTPase (GTP-bound) - importin-beta complex | cell-free CFP-Ran/YFP-importin-beta FRET ratio | inhibition, % (no concentration beside the values) | actives 1.1% (n = 300,000);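 active means most replicates above 15%; inconclusive means exactly half above 15%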;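 further: 0% = DMSO wells and 100% = Ran loaded with GDP instead of GTP; wells of about 40 µL received 100 nL stock; the first replicate is given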
T cruzi inh = inhibitors of intracellular T. cruzi growth, primary screen, luminescence, NIH3T3 host cells. T. cruzi beta-gal in NIH3T3, 90 h. inhibition, % (concentration not given with the values). actives 1.4% (n = 300,000);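 active means mean inhibition across valid replicates above about 55%, limit read from the data; inconclusive means mean below that limit but half or more replicates reach it; inactive means mean below it, under half of replicates reach it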;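 further: signal also drops with host cell toxicity which is not excluded here; 0% = plate median of DMSO wells and 100% = zero luminescence signal; higher percent means less beta-gal luminescence so fewer parasites; stock transfer was 50 nL into about 50 µL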
rRNA inh HTS = reduced GFP signal of wild-type E. coli, primary screen, bacterial rRNA inhibitor project, GFP/RFP fluorescence, OD600, single point. E. coli WT GFP vs humanized-ribosome RFP mutants, 24 h; hits give low values; DMSO median 0, no signal -100. GFP signal change (wild-type ribosome), % (test concentration not listed). actives 1.6% (n = 350,000);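 active means significant combined selectivity score with lowered wild-type GFP, culture density cut under 30%, mutant RFP and density less affected; inactive means any of these conditions unmet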; further: one replicate is shown; some compounds called inactive have numbers as strong as hits
Beta cell apopt = inhibitors of cytokine-induced beta cell apoptosis, primary screen, luminescence | INS-1E cytokine-induced death, ATP luminescence, 48 h; percent of positive-control rescue, neutral wells zero | protection from apoptosis, % (concentration not given with the values) | actives 0.8% (n = 300,000) | AID 435005, 2010;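 active means all replicates at 75% or more, or half of them and the mean; inconclusive means half reach 75% but not the mean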;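 further: 0% = cytokine-treated negative control wells and 100% = positive control rescue; higher means more ATP so stronger rescue from cytokine killing; wells of about 40 µL received 100 nL stock; the first replicate is given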
Calb FLC = C. albicans growth inhibition with fluconazole, primary screen, CaCi-2 strain, Alamar Blue fluorescence; actives 0.57% (n = 300,000); C. albicans CaCi-2 (fluconazole-resistant clinical isolate) + fluconazole, 48 h; growth inhibition, % (no concentration beside the values);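 active means most replicates above 75%; inconclusive means exactly half above 75%; inactive means most below 75%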;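 further: all wells also contain fluconazole at 8 µg/ml as a sub-toxic cotreatment; 0% = median of DMSO wells and 100% = median of geldanamycin control wells; wells of about 8 µL received 7.5 nL stock; the first replicate is given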
rRNA inh HTS OD600 = second read-out of rRNA inh HTS, no call of its own (marks repeat the call); OD600 change, %; measured here: OD600 growth;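 optical density of the mix in the first replicate; 0 = DMSO median and -100 = no signal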
rRNA inh HTS RFP = further read-out of rRNA inh HTS, marked with its call; RFP signal change, %; measured here: RFP humanized mutant strains;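 first replicate; 0 = DMSO median and -100 = no signal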
Active calls of the source: *; ? = inconclusive; . = not tested or not shown; & = joins results of further samples. The list is partial; count on the stated rates, not on these rows.

smiles	AF4-AF9 inh	Vif A3G	A1 inh	RanGTP-Imp inh	T cruzi inh	rRNA inh HTS	rRNA inh HTS OD600	rRNA inh HTS RFP	Beta cell apopt	Calb FLC
O=C(Cc1ccccc1)NCC(=O)N1CCc2ccccc2C1	-1.9	0%	0.8	1.1	-7	4	14	0.1	-2	8
COc1ccc(NC(=S)N(Cc2cccc(Br)c2)CC2CCC(C(=O)O)CC2)cc1 (stereo unspecified)	-1.4	-5%	1.3	-1.8	-6	-6	-18	-4.1	-5	24
CN1C(=O)SC(Nc2ccccc2)C1=O (stereo unspecified)	.	.	-0.8	-0.4	-17	14	10	0.8	-7	-1
COCCCN1C(=O)C(O)=C(C(C)=O)C1c1cccc(F)c1 (stereo unspecified)	.	18%	1.3	-0.1	-11	.	.	.	-8	0
COc1ccc(NC(=O)N(C2CCCCC2)C2CCN(C(C)C)CC2)c(OC)c1	.	?	.	-1.6	12	.	.	.	.	1
Cc1cc(C)cc(Cn2ncc(Cl)c(Cl)c2=O)c1	.	.	6.7*	3.1	-23	.	.	.	-4	16
CCOC(=O)c1cc2occc2n1CC(=O)Nc1ccc(OC)cc1OC	.	23%	-0.4	4.1	-2	.	.	.	.	8
O=C(c1cc2cc(Cl)ccc2oc1=O)N1CCN(c2ccccn2)CC1	-9.6	.	-0.1	1.8	-14	-4	-3	-4.7	-3	-10
COc1ccc(C(=O)NCc2cc(C)nc3ccccc23)cc1	0.4	-11%	0.0	3.3	-7	4	4	-3.4	0	-10
COc1ccc(NCc2nn(CC(=O)c3ccc(Br)cc3)c3[n+]2CCCCC3)cc1	30*	19%	-0.2	-0.2	14	-16	-4	3.8	12	-6
COc1cccc(/C=C2\SC(=S)N(CCC(=O)NNC(=O)c3ccccc3OC)C2=O)c1	-23	.	0.1	-0.1	-8	4	4	1.6	-5	1
O=S(=O)(c1ccc(=S)[nH]c1)N1CCCCCC1	-1.3	-2%	1.0	.	.	1	9	-3.8	-23	.
FC(F)(F)c1cc(-c2ccco2)nc(NCc2ccccc2)n1	.	16%	0.0	1.9	11	.	.	.	-3	9
O=C(COC(=O)c1ccc(F)cc1F)Nc1ccc2[nH]c(=O)[nH]c2c1	-1.5	?	-7.4	3.0	9	6	14	4.5	-4	-8
CCOC(=O)NC(=O)COC(=O)CCCc1nc2ccccc2s1	-4.7	.	-0.7	2.3	-14	6	15	-0.5	1	6
CCC(=O)Nc1cc(C)c(OC)c(C)c1	0.9	8%	0.0	3.7	-1	0	8	3.0	-3	25
CCc1cc2c3c(c(=O)oc2cc1OC(C)C(=O)O)CCCC3 (stereo unspecified)	2.0	.	0.2	-0.6	4	-12	-13	-5.7	-8	8
Cc1ccc(C2=Nc3ccccc3N=C(c3ccco3)C2)c(O)c1	.	6%	0.1	-4.3	3	.	.	.	11	5
CCOC(=O)C1Nc2c(F)cc(C)cc2C2C=CCC12 (stereo unspecified)	.	.	-1.4	2.9	-7	.	.	.	3	11
COc1ccc(S(=O)(=O)N(CC(=O)N/N=C/c2ccccc2C(=O)O)c2ccccc2OC)cc1	-19	14%	0.0	4.8	21	4	-1	-7.1	-2	-6
COc1ccc(C(=O)NNC(=O)c2cc(C)nc3ccccc23)cc1	-0.1	-11%	0.5	.	.	2	2	0.0	5	.
COc1cc(C2CC(=O)NC(SCC(=O)Nc3ccccc3C)=C2C#N)ccc1O (stereo unspecified)	.	-5%	-0.1	-3.1	.	.	.	.	-2	13
O=S(=O)(NC1=NCCCCC1)c1cc(F)ccc1F	-3.4	-2%	-0.7	.	.	5	5	-1.0	-4	.
Cc1ccc2nc(N3CCN(C)CC3)c(C=O)c(=O)n2c1	3.2	0%	0.2	-30	-1	7	13	-0.4	-11	3
Cc1ccc(-c2nc(N)sc2CC(=O)OCC(=O)N2C(C)CCCC2C)cc1 (stereo unspecified)	2.2	8%	0.5	-0.5	-21	2	10	8.8	1	5
CCN(Cc1cc2cccc(C)c2[nH]c1=O)C(=O)c1ccccc1OC	.	-3%	0.5	?	14	.	.	.	-4	-1
CCc1ccccc1NC(=O)CN1CCN(CC(=O)Nc2cc(C)ccc2OC)CC1	-1.9	-1%	1.6	3.1	10	19	9	3.1	11	-14
CN(C)c1ccc(C2/C(=C(/O)c3ccc(Br)cc3)C(=O)C(=O)N2C)cc1 (stereo unspecified)	-4.0	-5%	1.3	-1.8	-1	0	9	-1.3	1	-4
Cc1ccc2sc(NC(=O)CSc3nc(C)cc(C)c3C#N)nc2c1	.	18%	0.4	8.3	16	.	.	.	5	25
COC(=O)c1sccc1NC(=O)C12CC3CC(CC(C3)C1)C2	.	.	0.7	-4.4	-9	.	.	.	-5	-5
O=C(Nc1cccc(NC(=O)c2cccs2)c1)c1ccco1	.	-4%	0.2	-1.8	6	.	.	.	6	66
O=c1cc(N2CCN(Cc3ccccc3)CC2)[nH]c(=O)n1-c1cccc(C(F)(F)F)c1	.	2%	-0.9	41*	-7	.	.	.	-2	-7
CCn1c(SCC(=O)Nc2ccc(NC(=O)c3ccco3)c(OC)c2)nc2ccccc2c1=O	.	-9%&-8%	0.5	-2.0	33	.	.	.	3	-20
COc1cc(/C=N/NC(=O)C(=O)N2CCCC2)ccc1O	.	-3%	-0.2	4.5	1	.	.	.	-11	3
CC(C)C[C@H]1CN=C(N(C)C)N1CCc1cccc(F)c1	-19	.	0.8	.	.	14	12	-6.6	-8	.
O=C(CCC1CCCC1)NCCS(=O)(=O)N1CCN(c2ccccc2)CC1	-15	.	-1.7	-3.0	3	-3	3	-2.2	-5	-7
CCCc1ccc(C(=O)NNC(=O)c2ccc(Br)cc2)cc1	.	-8%	-0.3	-4.6	-4	.	.	.	4	16
CCOc1ccc(-n2c(SCC(N)=O)nc3c([nH]c4ccccc43)c2=O)cc1	0.9	-10%	.	0.5	0	7	9	0.1	.	-8
COC(=O)C1=C(C(=O)OC)[C@@H]2N(C)c3ccccc3[C@@]23C[C@@H](C(=O)OC)N=C3N1	1.4	6%	-1.0	-4.1	-14	13	4	-3.3	-3	-6
Nc1ccc(S(=O)(=O)O)cn1	-1.2&-8.6&-1.0	19%&0%&-10%	0.4&0.1&-0.3	-2.2&4.3&-0.1	-3&5&-18	14&5&9	9&-7&12	-0.5&-6.3&1.4	-2&-5&-12	-3&-7&-7
COc1ccc2c(c1)CCc1c(C(=O)NCc3cccnc3)noc1-2	-0.8	1%	-0.4	3.1	11	4	1	-0.9	1	15
O=C(CCCN1C(=O)c2ccccc2C1=O)NCc1cccnc1	.	-3%	-0.4	5.0	3	.	.	.	1	14
Cc1ccc(SCCC(=O)OCn2nnc3ccccc3c2=O)cc1	-0.7	-3%	0.0	5.7	-13	5	-2	3.5	-7	31
Cn1c(N)c(N2CCN(c3ccccc3)CC2)c(=O)[nH]c1=O	-0.9	-7%	?	?	-18	21	17	0.9	.	7
Cc1c(C(=O)OCc2nc3scc(-c4ccccc4)c3c(=O)[nH]2)cccc1[N+](=O)[O-]	.	6%	0.7	4.3	-8	.	.	.	15	7
O=C(CCSCc1ccccc1Cl)NC1CCCC1	.	.	0.2	-0.9	4	.	.	.	2	-18
CCOC(=O)c1c(C)n(-c2ccccc2)c2ccc(O)cc12	0.2	15%	0.3	-1.3	23	0	-9	-0.7	1	-2
CC1CC(C)CN(CC(=O)N2CCOCC2)C1 (stereo unspecified)	-50	9%	0.6	-0.6	-11	15	3	-6.7	-7	1
COc1ccc(C(=O)NNC(=O)C23CC4CC(CC(C4)C2)C3)cc1OC	2.0	0%	0.0	.	.	-1	-6	0.1	-1	.
CCC1Oc2ccccc2N(CC(=O)Nc2ccc3c(c2)OCCO3)C1=O (stereo unspecified)	.	18%	-0.6	?	.	.	.	.	-4	-19

The list continues.
smiles	AF4-AF9 inh	Vif A3G	A1 inh	RanGTP-Imp inh	T cruzi inh	rRNA inh HTS	rRNA inh HTS OD600	rRNA inh HTS RFP	Beta cell apopt	Calb FLC
C[C@H]1COC(=O)CCCC/C=C\C[C@H](CC(=O)N(CCO)Cc2ccccc2)C(=O)N1	-4.7	.	-0.2	.	.	9	0	4.1	-9	.
CCn1ncc(CN2CCC(Oc3ccc(C(=O)N4CCCC4)cc3)CC2)c1C	-0.1	.	-1.1	-1.0	11	19	14	-1.2	-5	3
Fc1ccccc1OCCSc1nc2ccccc2o1	.	-3%	-0.4	-1.2	16	.	.	.	-8	-9
CCn1c(=O)c2sccc2n(Cc2ccccc2)c1=O	.	.	1.5	6.1	-4	.	.	.	3	40
CN(C)C(=O)c1ccc(-c2nnc(NCc3ccccc3)c3ccccc23)cc1	.	.	0.0	4.7	28	.	.	.	0	7
CCOC(=O)N1CCC(n2c(SCC(=O)Nc3ccccc3OC)nc3ccccc3c2=O)CC1	.	7%	-0.1	6.2	56*	.	.	.	.	14
O=C(/C=C/c1ccccc1)Nc1ccc(NC(=O)c2cccs2)cc1	-16	-5%	-1.0	-0.8	9	1	4	-1.1	-1	7
COc1ccc(-c2noc(-c3ccccc3C(=O)NCC3CCCO3)n2)cc1 (stereo unspecified)	-4.5	-3%	1.0	10	.	0	-16	-0.5	-10	-22
Cc1ccnn1CCC(=O)N1CCCC(Nc2ccc(F)c(F)c2)C1 (stereo unspecified)	-7.7	.	0.5	1.2	15	0	1	-2.8	-1	-4
CCCCOc1ccc(S(=O)(=O)NNC(=O)C2Cc3c(ccc4ccccc34)O2)cc1 (stereo unspecified)	.	7%	-0.3	-2.0	-3	.	.	.	-5	15
ClCC1=Nc2ccccc2Cc2ccccc21	5.4	.	0.3	1.6	27	-16	4	40	.	-3
COc1ccc(N(CC(=O)N2CCCCCC2)S(=O)(=O)c2ccc(OC)c(OC)c2)cc1	1.3	.	-0.5	-3.5	12	-4	-7	0.6	.	7
C[C@H](NC(=O)C1CCN(S(=O)(=O)c2ccccc2)CC1)C(=O)NCc1ccc(Cl)cc1Cl	0.4	.	0.6	-0.4	9	-28	-39	-13	6	1
Cc1cccc(NC(=O)CCN2C(=O)c3cccc([N+](=O)[O-])c3C2=O)c1	-1.8	.	0.3	-0.8	-9	8	9	-4.5	-1	-4
COc1ccc(CCN(C)CCC(=O)Nc2cccc(C)c2)cc1OC	1.7	-8%	-0.9	?	38	4	1	-3.9	-6	1

From PubChem
